Screens (PubChem)
NPYLR7 ag = mosquito NPYLR7 agonism; activation, % at 10 µM; actives 0.15% (n = 270,000); HEK293T NPYLR7/Galpha15, GCaMP6s calcium fluorescence; in the data active = activation above about 40%;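 also: 0% = vehicle and 100% = reference agonist at the receptor; some compounds past the cut are filed as inactive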
NPYLR7 ag max-min = recorded beside NPYLR7 ag, whose call it bears; activation, %; measured here: Max-Min RFU normalised activation; some inactives read as strong as hits;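 span of the calcium signal over five minutes; 0% = vehicle and 100% = native peptide agonist; compound fluorescence can raise it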
* marks the source's active call; other numbers are inactive results; & = joins results of further samples. These rows are one share of the data, so the mix of outcomes need not match the whole.

The line under a structure holds: NPYLR7 ag | NPYLR7 ag max-min
Cc1[nH]nc(-c2ccc(O)c(C)c2O)c1-c1nc2ccccc2s1
 : 0 | -3
CCC(CO)N(Cc1ccsc1)C(=O)c1ccc2nc(C)[nH]c2c1 (stereo unspecified)
 : -5 | -8
CC(C)CC(=O)N(Cc1ccco1)Cc1nccn1Cc1cccc(F)c1
 : -9 | 0
CCOC(=O)c1nn(-c2ccccc2)c(=O)cc1OS(=O)(=O)c1ccc(OC)c(OC)c1
 : -3 | -1
O=C(c1cccc(F)c1)N(Cc1ccc(C(F)(F)F)cc1)CC1CC(c2ccc(Cl)cc2)=NO1 (stereo unspecified)
 : 5 | 9
Cc1cc([N+](=O)[O-])ccc1NC(=O)C(=O)N1CCC(O)CC1
 : -5 | 0
CCC1c2ccccc2CCN1C(=O)c1cc(S(N)(=O)=O)c(C)o1 (stereo unspecified)
 : 4 | 3
CCc1ccc(-c2ccc(=O)n(Cc3ccccc3C)n2)cc1
 : 12 | 7
O=C(Oc1coc(CSc2ncccn2)cc1=O)c1ccc(Cl)cc1
 : -12 | -7
O=C(NCc1cccs1)C1CCC(CNc2c(N3CCCC3)c(=O)c2=O)CC1 (stereo unspecified)
 : 4 | 2
CC(C(=O)O)N1C(=O)/C(=C/c2ccc(N(C)C)cc2)SC1=S (stereo unspecified)
 : 65* | 54*
CCOC(=O)c1sc(N2C(=O)C(O)=C(C(=O)c3cccs3)C2c2ccc([N+](=O)[O-])cc2)nc1C (stereo unspecified)
 : 4 | 1
CCOc1ccc(N(CC(=O)NCc2cccnc2)S(=O)(=O)c2ccc(SC)cc2)cc1
 : 2 | -2
Cc1ccccc1N1CC(c2nc3ccccc3n2CCOc2ccccc2)CC1=O (stereo unspecified)
 : 0 | -2
COCCNC(=S)Nc1ccc(N)c([N+](=O)[O-])c1
 : 2 | 7

Molecules listed so far with a furan ring, fused or not (2):
The line under a structure holds: NPYLR7 ag | NPYLR7 ag max-min
CC(C)CC(=O)N(Cc1ccco1)Cc1nccn1Cc1cccc(F)c1
 : -9 | 0
CCC1c2ccccc2CCN1C(=O)c1cc(S(N)(=O)=O)c(C)o1 (stereo unspecified)
 : 4 | 3

New compounds follow:
The line under a structure holds: NPYLR7 ag | NPYLR7 ag max-min
N#Cc1nc(-c2ccc(COc3ccccc3)o2)oc1NCc1ccco1
 : -1 | 18
Clc1ccc2nc(NCc3ccccn3)nc(-c3ccccc3)c2c1
 : -1 | -5
OC(c1ccc(F)c(F)c1)c1ncc(-c2cccc3ccccc23)[nH]1 (stereo unspecified)
 : 0 | -3
O=C(NCc1ccco1)c1cn(Cc2ccc(F)cc2)c(=O)s1
 : 9 | 3
Cc1ccc(CNC(=O)Cn2c(CO)cnc2SCc2cccc(C)c2)cc1
 : 8 | 4
Cc1ccc(Nc2nc(N(C)C)nc3[nH]ncc23)cc1C
 : 3 | 3
O=C(CSc1nnc(NC2CC2)s1)c1ccc[nH]1
 : -3 | 4
CCC(C)C(=O)N1Cc2ccccc2CC1C(=O)Nc1nc(C)cs1 (stereo unspecified)
 : 5 | 1
COc1ccc(NC(=O)CCC2CCCN(Cc3ccc4nonc4c3)C2)c(C)c1 (stereo unspecified)
 : 2 | 0
Cn1ncc2c(NCCCNc3cccnc3)nc(C(C)(C)C)nc21
 : -4 | -13
CC(=O)c1cccc(Nc2cc(C)nc3cc(C(F)(F)F)ccc23)c1
 : 3 | 3
CCc1nn2c(nnc3c(=O)n(CC4CCCO4)ccc32)c1-c1ccc(Cl)cc1 (stereo unspecified)
 : 0 | -1
Cc1ccc(C=C(C#N)C(=O)c2ccccc2)o1
 : 1 | -1
O=C(CN1C(=O)c2ccc([N+](=O)[O-])cc2C1=O)Nc1ccc(Br)cc1C(=O)O
 : 24 | 11
O=C(NCC(c1ccccc1)c1c[nH]c2ccccc12)C1CCCO1 (stereo unspecified)
 : 1 | 0
COc1ccc(CCNc2ccccc2N2CCC(O)CC2)cc1
 : 6 | 6
CCCCNC(=O)C(C)(C)n1cc(-c2ccc(OC)c(OC)c2)cn1
 : 7 | 4
c1csc(CCNc2ncnc3sc4c(c23)CCC4)c1
 : -1 | -2
Cc1ccc(Cl)c(NC(=O)CSCc2nnnn2C2CC2)c1Cl
 : 12 | 9
O=[N+]([O-])c1ccc(Nc2cccc(C(F)(F)F)c2)c([N+](=O)[O-])c1
 : -5 | -12
Cc1ccc(NC(=O)CSc2ccc3nnc(CCNC(=O)c4ccc(C)cc4)n3n2)cc1
 : -10 | -15
COc1ccc(C#N)cc1NC(=O)N(C)Cc1cccc(C#N)c1
 : 7 | 2
CC1=C(C(=O)O)N2C(=O)[C@@H](NC(=O)[C@H](N)C3=CCC=CC3)C2SC1 (stereo partly specified)
 : -2 | -9
O=C1OCCN1c1ccccc1NS(=O)(=O)c1ccc2nc(Cl)sc2c1
 : 6 | 3
O=C1COc2cc3c(cc2N1)NC(=O)CC3c1nccs1 (stereo unspecified)
 : -5 | -7
Cc1ccc(Nc2nc(NCc3cccnc3)nc3[nH]ncc23)cc1
 : 1 | 0
CS(=O)(=O)N(CC(=O)Nc1ccc(F)cc1)c1ccc(Cl)cc1F
 : 17 | 10
Cc1cc(=O)n2c(n1)NC(N1CCN(C)CC1)=NC2C1CC=CCC1 (stereo unspecified)
 : 4 | -2
Cc1ccc(C(=O)O)cc1NCc1ccc(Br)o1
 : 1 | -1
COc1ccc(CCOc2nc(-c3ccccc3F)n(-c3cccc(NC(=O)c4cccc([N+](=O)[O-])c4)c3)n2)cc1
 : 9 | 15
N#Cc1ccc(COC2C[C@](OCc3cccc(C(F)(F)F)c3)(C(=O)NCC3CCCO3)C[C@@H](O)[C@H]2O)cc1 (stereo partly specified)
 : 6 | 17
CCCCCn1cnnc1SCC(=O)c1c(N)n(C2CC2)c(=O)[nH]c1=O
 : 3 | 13
CC(=O)NS(=O)(=O)c1ccc(N)cc1
 : -11&-6&-2&-2 | -16&-7&-7&-6
NC(=O)c1nc(-c2cc(Br)ccc2O)nc2c1[nH]c(=O)n2-c1ccccc1
 : 1 | 14
CCOc1cccc(N2C(=O)CC(N3CCN(CC)CC3)C2=O)c1 (stereo unspecified)
 : 0 | -2
CN1C(=O)CC(C(=O)NNc2ncccn2)C1c1cccc(Cl)c1 (stereo unspecified)
 : 9 | 8
O=C(CCl)Nc1cc2c(cc1Cl)OCCCO2
 : 7 | 7
CCCn1nccc1C(=O)NC1CC(=O)N(CCc2ccccc2)C1 (stereo unspecified)
 : 8 | -1
CN(C)c1ncccc1C(=O)Nc1ccc(C#N)cn1
 : 19 | 9
COc1cc(/C=C/c2ccc(O)c(OC)c2)ccc1O
 : 4 | 1
COc1ccccc1NC(=O)C(C)N1CCN(S(=O)(=O)c2cc(C)ccc2C)CC1 (stereo unspecified)
 : 7 | 6
Cc1ccc(NC(=O)CSc2nc(Cl)cc(N3CCN(C(=O)C4CC4)C(C)C3)n2)cc1 (stereo unspecified)
 : 14 | 16
COc1ccc(N2C(=O)C3C4C=CC(C4)C3C2=O)cc1OC (stereo unspecified)
 : -9 | -15
O=C(Nc1nncs1)NC(c1ccccc1)C1CCCC1 (stereo unspecified)
 : 0 | -1
CC(C)(C)OC(=O)N1CC(CC(=O)Nc2cccc(C#N)c2)C1
 : 8 | 7

Grouped by structure: the entries above containing a cyano group.
The line under a structure holds: NPYLR7 ag | NPYLR7 ag max-min
N#Cc1nc(-c2ccc(COc3ccccc3)o2)oc1NCc1ccco1
 : -1 | 18
Cc1ccc(C=C(C#N)C(=O)c2ccccc2)o1
 : 1 | -1
COc1ccc(C#N)cc1NC(=O)N(C)Cc1cccc(C#N)c1
 : 7 | 2
N#Cc1ccc(COC2C[C@](OCc3cccc(C(F)(F)F)c3)(C(=O)NCC3CCCO3)C[C@@H](O)[C@H]2O)cc1 (stereo partly specified)
 : 6 | 17
CN(C)c1ncccc1C(=O)Nc1ccc(C#N)cn1
 : 19 | 9
CC(C)(C)OC(=O)N1CC(CC(=O)Nc2cccc(C#N)c2)C1
 : 8 | 7

(continued)
The line under a structure holds: NPYLR7 ag | NPYLR7 ag max-min
CC(C)CN(CC(=O)N(CCc1ccccc1)Cc1ccco1)S(=O)(=O)c1ccc(F)cc1
 : 1 | 12
CC1CC(C)(C)CCC1NC(=O)CCS(C)(=O)=O (stereo unspecified)
 : -12 | -16
Cc1ccccc1S(=O)(=O)NC(=O)C1(C)CCN1C(=O)c1sccc1C (stereo unspecified)
 : -2 | -4
Cc1nn(C)c(Cl)c1S(=O)(=O)NC(=O)C1(C)CCN1C(=O)Cc1ccsc1 (stereo unspecified)
 : 3 | -1
COc1ccc(NC(=O)C(=O)Nc2nc3ccccc3s2)cc1N1CCCCC1=O
 : 4 | 2
O=C(NCCSCc1ccccc1)C1CCCCC1C(=O)N1CCc2c([nH]c3ccccc23)C1 (stereo unspecified)
 : -1 | -11
COc1ccc(-c2nc(CN(CCO)Cc3cccs3)c(C)o2)c(OC)c1
 : 3 | 0
CCc1cnc2c(c1NCCCn1ccnc1)c(=O)n(C)c(=O)n2C
 : 6 | 1
FC(F)(F)c1ccnc(N2CC(c3nc4ccccc4s3)C2)n1
 : 8 | 6
Cc1ccc(C(=O)C(C)[n+]2cccc(C(N)=O)c2)cc1 (stereo unspecified)
 : 5 | 3
CC(C)(C)OC(=O)NNC(=O)C=Cc1ccco1
 : 2 | 7
CCc1ccc(C2CCCCCN2)o1 (stereo unspecified)
 : 20 | 14
CCc1cc(Oc2ccc(C)cc2C)nc(SCc2cccc(OC)c2)n1
 : -10 | -1
Cc1noc(C)c1CN1CCN2C=C(C(=O)N3CCOCC3)OC2=NC1=O
 : -1 | -2
Cc1ccccc1NC(=O)N1CCC(CCc2ccc(C(F)(F)F)cc2)CC1
 : 2 | 14
Cc1ccccc1CN1CCC(CN(CC2CCCO2)C(=O)c2ccc(N(C)C)cc2)CC1 (stereo unspecified)
 : 6 | 0
CCSc1ccc(Cl)cc1C(=O)N(C)Cc1nc(CC)no1
 : 0 | 0
O=C(NCCCN1CCOCC1)C(=O)NCC1OCCN1S(=O)(=O)c1cc(F)ccc1F (stereo unspecified)
 : -5 | 1
O=C(Nc1ccc(Cl)c(-c2nc3ccccc3o2)c1)c1cc([N+](=O)[O-])ccc1Cl
 : -3 | -12
CC(C)(C)c1ccc(COc2coc(CN3CCCN(S(=O)(=O)c4cc(F)c(F)cc4Cl)CC3)cc2=O)cc1
 : 4 | 0
CCc1noc(C)c1C(=O)N1CCC2(CCCN(CCCc3ccccc3)C2)C1 (stereo unspecified)
 : 16 | 10
Cc1ccc(C(=O)N2CCN(c3ccc(C(N)=O)cc3)CC2)s1
 : 3 | -1
C#CCN(C)C(=O)c1cc(N(C)C2CCCCC2)nc2ccccc12
 : 6 | 3
COCC(=O)Nc1ccc(-n2nc(OCc3ccc(F)cc3)nc2-c2ccc(OC)cc2)cc1
 : 3 | 16
Cc1ccc(C(=O)OCC(=O)N(C)Cc2cc(C#N)ccc2F)c(O)c1C
 : 0 | 2
Cc1ccc(C(=O)Nc2ccc(N(C)C(=O)c3ccc(C)c(F)c3)cn2)cc1F
 : -3 | 321
Cc1nc2ccc3nc(C)sc3c2s1
 : 2 | 34
COc1cccc(-c2cc3c(n(Cc4ccccn4)c2=O)CCN(C(=O)c2csc(C)n2)C3)c1
 : 19 | 2
Cc1ccccc1N1C(=O)CSC1c1ccccc1NC(=O)c1cc(C(F)(F)F)cc(C(F)(F)F)c1 (stereo unspecified)
 : 8 | 18
CCCNC(=O)CN(CCC)C(=O)c1oc(-c2ccccc2)nc1C
 : -16 | -15

Copied from the listing, 3 compounds:
The line under a structure holds: NPYLR7 ag | NPYLR7 ag max-min
C#CCN(C)C(=O)c1cc(N(C)C2CCCCC2)nc2ccccc12
 : 6 | 3
COCC(=O)Nc1ccc(-n2nc(OCc3ccc(F)cc3)nc2-c2ccc(OC)cc2)cc1
 : 3 | 16
Cc1ccc(C(=O)OCC(=O)N(C)Cc2cc(C#N)ccc2F)c(O)c1C
 : 0 | 2

Continuation:
The line under a structure holds: NPYLR7 ag | NPYLR7 ag max-min
Cn1cnnc1SCC(=O)N1CCCC(C(=O)c2ccc3c4c(cccc24)CC3)C1 (stereo unspecified)
 : 20 | 4
N#CC(=Cc1cc(Br)cs1)C(=O)NCc1ccccc1
 : 3 | 2
Cn1c(=O)c2c(nc(Cl)n2CC(=O)N2c3ccccc3NC(=O)C23CCCC3)n(C)c1=O
 : 4 | 2
O=S(=O)(NCc1ccccc1)NC1CCN(c2cnccn2)CC1
 : 8 | 1
CC(C)[C@H]1CC[C@H](C)C[C@@H]1OCC(=O)NC(c1ccc(S(C)(=O)=O)cc1)c1cccc(N(C)C)c1 (stereo partly specified)
 : -7 | -12
Cc1cccc(CNc2cc(-c3ccccc3)nc3ncnn23)c1
 : -3 | 5
COC(=O)c1cccc(CN2CCN(c3ccccc3C)CC2C)n1 (stereo unspecified)
 : 1 | 1
O=C(CCc1cccs1)Nc1nccs1
 : 6 | 6
O=C(CSc1nc2ccccc2[nH]1)N/N=C\c1ccccc1C(F)(F)F
 : 10 | 9
O=C1C2C3C=CC(C4CC34)C2C(=O)N1c1cc(C(F)(F)F)ccc1Cl (stereo unspecified)
 : -3 | -11
COCCN1CCC(CNC(=O)C(=O)Nc2cc(Cl)ccc2OC)CC1
 : -3 | -3
Cc1ncsc1COC(=O)c1cccc(S(C)(=O)=O)c1
 : 3 | -2
Cc1ccccc1C1CC1C(=O)N1CCCC(O)(C(F)(F)F)C1 (stereo unspecified)
 : 8 | 5
CCOc1ccc(CN2CCCC(N(C)CCc3ccc(OC)c(OC)c3)C2)cc1CO (stereo unspecified)
 : 8 | 6
CCCn1cnc2c(nnn2C)c1=O
 : 0 | 21
Cc1sc2nc(CSc3nnnn3C3CC3)[nH]c(=O)c2c1C
 : 2 | 7
COc1cc(C=CC(=O)Nc2ccc(-n3cnnn3)cc2)cc(OC)c1
 : -3 | -5
CC(=O)NCc1ccc(-c2cccc(CN3CCOCC3)c2)nc1
 : -10 | -14
Cc1sc(NCCCN(C)C)nc1-c1ccc2c(c1)CCC2
 : 3 | 2
Cc1cc(C)nc(NC(=S)NC(=O)c2cc(I)ccc2Cl)n1
 : 6 | 9

Whole records, looked up by structure:
Results for O=C(CN1C(=O)c2ccc([N+](=O)[O-])cc2C1=O)Nc1ccc(Br)cc1C(=O)O : NPYLR7 ag = 24; NPYLR7 ag max-min = 11
Results for CN(C)c1ncccc1C(=O)Nc1ccc(C#N)cn1 : NPYLR7 ag = 19; NPYLR7 ag max-min = 9
